High-throughput results (PubChem BioAssay)
PfGluPho inh: PfG6PD (Plasmodium falciparum) enzyme inhibition; 350,000 tested, 0.78% active; PfGluPho enzyme, NADPH resazurin-diaphorase fluorescence; inhibition, % at 20 µM;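 active = inhibition reaching at least a set limit at 20 µM in the primary screen, cut at about 59% in these data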;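 also: 0% = DMSO wells with substrate and 100% = DMSO wells lacking glucose-6-phosphate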
ATG4B inhibitor: blocks human ATG4B protease cleavage of LC3 substrate | ATG4B cleavage of LC3-PLA2, NBD-HPC fluorescence, 1 h | inhibition, % at 8.33 µM | 340,000 tested, 0.51% active; in the data active = inhibition above about 40%
HKDC1 inhibitor: blocks human hexokinase HKDC1 activity. Q2TB90. inhibition, % at 20 µM. 340,000 tested, 0.16% active. recombinant HKDC1, G6PDH/diaphorase resazurin coupled fluorescence. AID 493160;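 active = inhibition above about 35% when tested at 20 µM, limit read from the data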;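 also: plate controls were DMSO wells with enzyme for no effect and DMSO wells lacking enzyme for full effect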
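Material: recombinant HKDC1 hexokinase; Amount: HKDC1 at 5 µg/mL; Medium: Tris pH 8.0 buffer with MgCl2, Tween-20, BSA, BME; Schedule: 90 min reaction incubation at room temperature, dark; Technique: coupled resazurin fluorescence, excitation 525 nm, emission 613 nm.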
SENP8 block: SENP8 (human) protease inhibition; inhibition, % at 20 µM; 360,000 tested, 0.64% active; Q96LD8; recombinant SENP8, Nedd8 substrate fluorescence; in the data active = inhibition mostly above about 40%, no sharp cut-off; inactive = mostly below about 27%
Starred values were filed as active, the others as inactive; & = joins results of further samples.

Structure	PfGluPho inh	ATG4B inhibitor	HKDC1 inhibitor	SENP8 block
CN1[C@@H]2CC(OC(=O)[C@H](CO)c3ccccc3)C[C@H]1[C@@H]1O[C@@H]12 (stereo partly drawn)	1&-12&1&10	-1&6&-9&-3	-6&-8&-4&-4	13&4&22&-1
O=c1n(CCCN2CCN(c3cccc(Cl)c3)CC2)nc2ccccn12	-14	-9	2	-387
Nc1ncnc2c1ncn2C1O[C@H](CO)[C@@H](O)[C@@H]1O (stereo partly drawn)	-8	8	-5	10
COC(=O)[C@H]1[C@H]2C[C@H]3c4[nH]c5ccccc5c4CCN3C[C@H]2CC[C@@H]1O	18	5	0	-21
CCC[C@@H]1C[C@@H](C(=O)NC(C(C)Cl)[C@H]2O[C@H](SC)[C@H](O)[C@@H](O)[C@H]2O)N(C)C1 (stereo partly drawn)	-1	-1	-4	4
CCS(=O)(=O)CCn1c([N+](=O)[O-])cnc1C	-15	-2	8	5
CCn1nc(C(=O)O)c(=O)c2cc3c(cc21)OCO3	-11	2	0	-20
CC(C)(Sc1cc(C(C)(C)C)c(O)c(C(C)(C)C)c1)Sc1cc(C(C)(C)C)c(O)c(C(C)(C)C)c1	-21	5	-4	9
COC1=CC(=O)CC(C)C12Oc1c(Cl)c(OC)cc(OC)c1C2=O (stereo not drawn)	-11	6	-5	-168
COc1ccc2cc([C@H](C)C(=O)O)ccc2c1	-18	3	-3	0
CN(C)c1nc(N(C)C)nc(N(C)C)n1	-7	1	-2	9
COC(=O)C1C(O)CCC2CN3CCc4c([nH]c5ccccc45)C3CC21 (stereo not drawn)	9	0	5	-36

Some of the entries so far, as labelled records.
> COc1ccc2cc([C@H](C)C(=O)O)ccc2c1
  PfGluPho inh: -18
  ATG4B inhibitor: 3
  HKDC1 inhibitor: -3
  SENP8 block: 0
> CN(C)c1nc(N(C)C)nc(N(C)C)n1
  PfGluPho inh: -7
  ATG4B inhibitor: 1
  HKDC1 inhibitor: -2
  SENP8 block: 9

Only ATG4B inhibitor and HKDC1 inhibitor, for 5 of the compounds above:
Structure	ATG4B inhibitor	HKDC1 inhibitor
CCC[C@@H]1C[C@@H](C(=O)NC(C(C)Cl)[C@H]2O[C@H](SC)[C@H](O)[C@@H](O)[C@H]2O)N(C)C1 (stereo partly drawn)	-1	-4
CCS(=O)(=O)CCn1c([N+](=O)[O-])cnc1C	-2	8
CCn1nc(C(=O)O)c(=O)c2cc3c(cc21)OCO3	2	0
CC(C)(Sc1cc(C(C)(C)C)c(O)c(C(C)(C)C)c1)Sc1cc(C(C)(C)C)c(O)c(C(C)(C)C)c1	5	-4
COC1=CC(=O)CC(C)C12Oc1c(Cl)c(OC)cc(OC)c1C2=O (stereo not drawn)	6	-5

Look-ups from the entries so far.
Reading of CN(C)c1nc(N(C)C)nc(N(C)C)n1 under PfGluPho inh: -7
Reading of COc1ccc2cc([C@H](C)C(=O)O)ccc2c1 under HKDC1 inhibitor: -3
Reading of CN1[C@@H]2CC(OC(=O)[C@H](CO)c3ccccc3)C[C@H]1[C@@H]1O[C@@H]12 (stereo partly drawn) under SENP8 block: 13&4&22&-1

Only part of the results is shown. The share of hits here may be higher or lower than overall.
